# Screens as filed in PubChem.
# Mtb betalactam = beta-lactam sensitization of Mtb H37Rv. M. tuberculosis H37Rv growth with meropenem, percent inhibition; hits of this screen are not shown here. inhibition, % at 25 µM. 0.27% of 330,000 active;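 active = about 74% or more and at least 40 points above the plate without the antibiotic, then above 30% in a dose series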;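 note: growth measured after seven days incubation then overnight dye step; 0% = bacteria only wells and 100% = bacteria with antibiotic; twin plates without the antibiotic show which effects depend on it; some results filed as inactive read as strong as hits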
# YopH inh = YopH (Yersinia) phosphatase inhibition; fluorescence Ex485/Em525; inhibition, %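 (about 10 µM by stock and volumes)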; 0.16% of 140,000 active;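 active = inhibition of 50% or more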;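 note: controls were vehicle for no effect and minimum signal wells for full effect; inactives centre near -20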
# RecA splice inh = inhibitors of M. tuberculosis RecA intein splicing; cell-free RecA intein splicing, fluorescence; inhibition, %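 (about 9 µM by stock and volumes)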; 0.75% of 290,000 active; in the data active = inhibition above about 30%;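 note: 0% = vehicle wells and 100% = reference inhibitor control wells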
# Target sequence (P9WHJ3 whole entry, looked up, canonical isoform): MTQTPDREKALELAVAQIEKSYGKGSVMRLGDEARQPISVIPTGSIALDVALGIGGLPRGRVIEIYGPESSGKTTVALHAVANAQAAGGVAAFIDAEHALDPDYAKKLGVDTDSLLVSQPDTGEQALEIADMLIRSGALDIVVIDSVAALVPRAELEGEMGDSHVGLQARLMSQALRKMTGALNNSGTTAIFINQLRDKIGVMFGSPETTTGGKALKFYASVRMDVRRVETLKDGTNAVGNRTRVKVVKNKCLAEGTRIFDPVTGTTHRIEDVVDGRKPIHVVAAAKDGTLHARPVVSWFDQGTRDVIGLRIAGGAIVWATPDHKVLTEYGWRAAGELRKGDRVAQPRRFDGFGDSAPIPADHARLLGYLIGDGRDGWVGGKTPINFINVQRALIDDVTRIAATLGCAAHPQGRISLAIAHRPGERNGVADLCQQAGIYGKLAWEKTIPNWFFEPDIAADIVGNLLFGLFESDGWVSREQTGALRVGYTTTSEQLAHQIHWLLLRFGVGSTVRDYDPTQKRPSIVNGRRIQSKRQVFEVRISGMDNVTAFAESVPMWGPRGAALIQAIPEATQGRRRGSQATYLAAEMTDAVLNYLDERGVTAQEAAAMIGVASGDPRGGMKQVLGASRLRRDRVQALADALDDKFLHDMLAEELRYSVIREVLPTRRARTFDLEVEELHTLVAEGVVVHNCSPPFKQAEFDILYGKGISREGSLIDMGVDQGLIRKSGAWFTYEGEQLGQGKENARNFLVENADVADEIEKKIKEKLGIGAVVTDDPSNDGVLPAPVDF
# Mtb H37Rv = M. tuberculosis H37Rv growth inhibitors, H37Rv strain (AID 1626); M. tuberculosis H37Rv growth inhibition; higher % means a stronger effect; 0.95% of 220,000 active; one-dose inhibition, % at 10 µM; IC50 in µM for titrated hits;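 active = confirmed in a dose series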;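 note: bacteria incubated seven days before Alamar blue readout; 0% = bacteria only wells and 100% = bacteria with antibiotic wells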
# Arbovirus inh = arbovirus infection inhibition. inhibition, % at 10 µM. AID 1251. 0.37% of 200,000 active. arbovirus infection cell-based antiviral screen;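 active = inhibition from about 30%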;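 note: bluetongue infection of BSR cells; cell survival read as ATP light after 72 h; 0% = infected wells without compound and 100% = uninfected wells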
# Arbovirus inh repeat = further read-out of Arbovirus inh, marked with its call; inhibition, %; measured here: 10K subset replicate screen; many hits read low in the repeat;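 first of two repeat runs on a subset; 0% = infected and 100% = uninfected wells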
# An asterisk follows results filed as active; nt = no result given. A portion of the library. The share of hits here may be higher or lower than overall.
SMILES,Mtb betalactam,YopH inh,RecA splice inh,Mtb H37Rv,Arbovirus inh,others
COc1ccc(C(=O)n2nc(-c3ccccc3)nc2SC)cc1,nt,-27.8,4.4,nt,6.0,
Nc1nc(CN2CCCCC2)cs1,3.9,-50.6,-4.4,-5.3%,4.0,
N=C(N)SCc1ncccc1O,-5.8,nt,-0.8,-7.0%,nt,
Cc1ccccc1C(=O)NCC(=O)Nc1ccc(C)c(S(=O)(=O)N2CCCCCC2)c1,-10.7,nt,2.0,nt,nt,
COc1ccc(C(=O)N2CCN(c3ccc([N+](=O)[O-])c(-n4nc(C)cc4C)c3)CC2)cc1,-4.3,-5.9,2.7,5.9%,-9.1,
Cc1ccc(S(=O)(=O)Nc2ccc(C(=O)Nc3ccncc3)cc2)cc1,-0.6,13.4,-10.6,-2.1%,-0.6,
CC(=O)c1cc(C#N)c(SCc2ccncc2)nc1C,-7.7,-42.8,-0.6,5.3%,7.0,
COc1ccc(S(=O)(=O)N(C)CC(=O)N2CCOCC2)cc1,5.6,-3.7,-0.1,-2.7%,0.9,
CN(C)c1ccc(C2(O)C(=O)c3ccccc3C2=O)cc1,-9.0,-17.4,-2.3,-3.4%,4.7,
CC(C(=O)Nc1cccc([N+](=O)[O-])c1)[n+]1ccccc1 (stereo unspecified),-2.1,nt,-2.3,-5.6%,2.7,
COc1ccc(NC(=O)C2CC(=O)NC(Nc3cccc(C)c3)=N2)cc1 (stereo unspecified),-0.3,-71.0,3.3,-17.9%,-2.9,
CS(=O)(=O)N1CCc2cc(-c3csc(NC(=O)C(c4ccccc4)c4ccccc4)n3)ccc21,20.8,-11.4,4.6,-0.8%,-8.9,
COc1ccc(CCC(=O)OCC(=O)Nc2ccc3[nH]c(=O)[nH]c3c2)cc1,1.2,nt,0.9,nt,nt,
CCOc1cc(C)c(Cl)cc1S(=O)(=O)n1cnc2ccccc21,-2.5,-21.0,-3.4,-2.0%,9.1,
O=C(/C=C/c1ccc(Cl)cc1Cl)c1ccc[nH]1,1.1,nt,6.8,-2.9%,8.8,
COc1cc(C(=S)N2CCCC2)cc(OC)c1OC,-4.0,nt,-3.3,5.5%,5.3,
Nc1nnc(SC2CCCC2)s1,0.5,-21.2,-1.2,4.5%,1.2,
FC(F)(F)C1=CC(c2ccc(Br)cc2)=NCCN1,-10.8,0.2,6.2,0.6%,0.4,
C(=C\c1ccccc1)/CSc1nc2ncccc2[nH]1,-7.2,nt,-2.1,4.3%,nt,
O=C(Nc1ccc(S(=O)(=O)N2CCCCCC2)cc1)c1c(F)cccc1F,1.9,nt,4.7,nt,nt,
COc1cccc(C(C)N(C)Cc2nc(-c3ccoc3)oc2C)c1 (stereo unspecified),-1.9,nt,1.6,0.5%,1.4,
Cc1ccc2c(c1)c1c(n2CC(O)CNC(CO)(CO)CO)CCCC1 (stereo unspecified),-2.8,nt,nt,3.5%,6.7,Arbovirus inh repeat=4.7
O=C(CNS(=O)(=O)c1ccc(F)c(Cl)c1)N1CCCC1,3.7,nt,0.8,nt,nt,
Cc1nn(Cc2cccc(C(N)=O)c2)c(C)c1Br,-1.8,nt,nt,-12.3%,nt,
CCOc1ccc(-c2cc(C)n3nc(C(N)=O)cc3n2)cc1,13.4,-18.4,-15.5,-1.1%,15.8,
N#Cc1ccc(Oc2ccc(C(F)(F)F)cc2NC(=O)c2ccc(F)cc2)cc1,-2.5,nt,4.4,-9.0%,nt,
CCN(CC)S(=O)(=O)c1ccc2c(c1)nc(CCC(=O)OCC(=O)Nc1cc(Cl)cc(Cl)c1)n2C,6.0,-14.2,4.7,-6.2%,3.5,
O=C(NCc1cccnc1)Nc1ccc2c(c1)OCO2,-4.0,nt,-4.4,4.7%,-1.2,
COc1ccc(C(CCN2CCCC(C)C2)c2c(OC)cc(OC)c3c(C)cc(=O)oc23)cc1 (stereo unspecified),4.3,nt,0.3,1.1%,nt,
COc1ccccc1/C=N/NC(=O)c1c(-c2ccccc2)noc1C,-3.0,nt,1.9,nt,nt,
Clc1ccccc1CN1CCN(/N=C/c2ccncc2)CC1,7.4,nt,-1.5,3.4%,-21.6,
O=[N+]([O-])c1cccc(-c2cc3ccccc3[nH]2)c1,6.5,nt,0.9,nt,nt,
O=C1CN=C(c2ccc(F)cc2)c2oc3ccccc3c2N1,-0.7,nt,-0.6,6.5%,-0.3,
CCOCCCNCc1cc(Cl)ccc1OCC,-3.2,nt,0.8,8.9%,0.0,
Cc1ccn2cc(CSc3ccccc3N)nc2c1,-3.8,-11.6,1.2,-2.2%,-7.7,
Cc1noc(C)c1COC(=O)c1cccc(N(C)C)c1,-0.8,nt,0.0,-0.1%,-4.7,
CC(=O)NC12CC3CC(C)(C1)CC(NC(C)=O)(C3)C2,-2.8,-42.8,-1.4,-2.0%,1.0,
COc1cc(/C=N\Nc2nc(-c3ccc(C)cc3)c(NC(C)=O)s2)ccc1O,76.7,nt,4.5,-3.5%,nt,
CN1CCCN(C(=O)CC2(CC(=O)O)CCCCC2)CC1,6.0,nt,-3.6,-4.0%,nt,
CCOC(=O)c1c(=O)n(O)c2ccc(OC)cc2[n+]1[O-],-2.0,-15.7,nt,-9.6%,5.2,
COc1ccccc1-n1cc(C(=O)NCC(=O)N2CCN(c3ccccn3)CC2)c2ccccc2c1=O,-3.0,nt,0.9,7.7%,nt,
C/C(=C\CCC1(C)C2CC3C(C2)C31C)C(=O)O (stereo unspecified),-1.6,nt,-0.4,-3.6%,nt,
CCOC(=O)c1cc2c(nc1NC(=S)NCc1ccccc1)CCCC2,8.7,-33.8,0.7,-9.6%,3.1,
COc1ccc2[nH]c3c(c2c1)CCn1c-3nc2sc(C(=O)Nc3ccccc3)c(C)c2c1=O,nt,-3.6,nt,nt,-3.2,
O=C(NCc1ccco1)C1CC(=O)N(c2ccc(F)cc2)C1 (stereo unspecified),-0.9,-22.8,-0.8,-9.3%,4.3,
CCC(CC)C(=O)Nc1nnc(SCC(=O)NC2CC2)s1,-3.8,nt,-0.1,nt,nt,
Cc1ccc(CC(CC(=O)O)C(=O)NC2CCCCC2)cc1 (stereo unspecified),5.0,-17.9,0.2,-1.1%,-0.1,Arbovirus inh repeat=-1.4
CCn1c(SCC(=O)NC2CCCC2)nnc1-c1ccncc1,5.7,nt,-1.2,nt,nt,

# A portion from further up:
SMILES,Mtb betalactam,YopH inh,RecA splice inh,Mtb H37Rv,Arbovirus inh,others
Cc1ccc(CC(CC(=O)O)C(=O)NC2CCCCC2)cc1 (stereo unspecified),5.0,-17.9,0.2,-1.1%,-0.1,Arbovirus inh repeat=-1.4
CCn1c(SCC(=O)NC2CCCC2)nnc1-c1ccncc1,5.7,nt,-1.2,nt,nt,

# New compounds follow:
SMILES,Mtb betalactam,YopH inh,RecA splice inh,Mtb H37Rv,Arbovirus inh,others
COc1ccc(OC)c(CN2CCC(C(=O)N3CCOCC3)CC2)c1,-2.2,-12.8,0.6,-3.9%,0.0,
CCC(C)c1ccc(NC(=S)NCc2cccs2)cc1 (stereo unspecified),80.1,-5.7,9.1,18.2%,-29.1,
COc1cccc(/C=C2\SC(=S)N(N3CCOCC3)C2=O)c1OC,-4.1,-19.1,-5.2,6.8%,-1.9,
Cc1ccc(C(=O)NC(=S)NNC(=O)CC#N)cc1,6.3,nt,nt,-14.7%,-2.1,
O=S(=O)(c1ccc(F)c(Cl)c1)N1CCCC1,-3.3,-0.8,-0.2,-5.9%,7.4,
COc1ccc2nc3oc(C(=O)N4CCCCC4)cc3cc2c1,67.0,-16.9,1.4,5.2%,0.2,
Cc1ncoc1C(=O)Nc1ccc(Oc2ccccc2)cc1,-4.6,-38.0,-1.9,0.9%,-2.0,
CCCC1CC(C(=O)Nc2ccccc2)C(=O)O1 (stereo unspecified),1.8,nt,-0.7,nt,nt,
CC(=O)Nc1ccc(NC(=O)c2cc(-c3ccc(C)c(C)c3O)n[nH]2)cc1,9.8,nt,0.6,nt,nt,
Cc1cc(C)nc(Nc2nc3ccccc3o2)n1,-8.9,nt,-1.0,-4.5%,nt,
C(=N\N1CCN(c2ccccn2)CC1)/c1cccc2ccccc12,-0.7,nt,3.8,-15.0%,nt,
O=C(O)C1CC=CCC1C(=O)Nc1cccc([N+](=O)[O-])c1 (stereo unspecified),-2.5,nt,0.3,5.4%,0.1,
Cc1cc(C)c(NC(=O)CSc2nnc(CNC(=O)c3ccccc3F)o2)c(C)c1,2.2,nt,2.9,nt,nt,
Cc1ccc2nsnc2c1NC(=O)c1ccc2c(c1)OCCO2,6.5,-11.5,-1.7,1.6%,-0.5,
Cn1nnnc1SCC(=O)Nc1ccccn1,-1.7,-23.1,-0.6,-3.2%,-2.6,
O=S(=O)(N1CCCCC1)N1CCN(S(=O)(=O)N2CCCCC2)CC1,nt,-53.3,-3.4,7.5%,-1.1,
CCCCCCCCOc1ccc(C2OC34CCCCC3C(C#N)(C#N)C2(C#N)C(=N)O4)cc1 (stereo unspecified),-6.6,-12.8,-414.0,3.7%,-0.2,
CCN(CC(=O)Nc1cc(Cl)ccc1C)C(=O)CCS(=O)(=O)c1ccc(C)cc1,-3.2,nt,0.0,nt,nt,
Cc1ccc(NC(=O)CNC(=O)COc2ccccc2)nc1,-5.6,nt,2.5,nt,nt,
O=C(O)CCC(=O)N(Cc1ccco1)c1nc(-c2ccccc2)cs1,0.4,-33.6,1.1,-2.8%,8.9,
O=C(NCC1CCCO1)c1ccc2c(c1)N(Cc1ccc(F)cc1Cl)C(=O)CS2 (stereo unspecified),6.7,nt,0.4,nt,nt,
Cc1ccnc(NC(=O)C2CCN(S(=O)(=O)c3cccc4nsnc34)CC2)c1,-12.1,-47.4,-1.2,nt,-0.1,
CC(C)(C)NC(=O)CCCCCCCC(=O)NC(C)(C)C,-5.8,nt,0.9,2.5%,0.2,
CC(C)(C)C(=O)Nc1ccc(C(=O)N/N=C/c2ccccc2OC(=O)c2ccccc2)cc1,7.6,-17.6,1.2,-16.6%,-28.0,
CC(=O)CSc1nnc(-c2ccncc2)n1C,3.2,-13.3,-0.9,-3.6%,6.9,
CCN(c1ccccc1)S(=O)(=O)c1cc(C(=O)Oc2ccc3c(C)cc(=O)oc3c2)ccc1C,82.8,-4.8,-0.1,75.5%,-0.8,
Cc1ccc(S(=O)(=O)Nc2cccc(/C=C/C(=O)O)c2)cc1,3.6,-45.0,1.7,-3.0%,2.8,
CS(=O)(=O)Oc1ccc2c(c1)O/C(=C\c1cccnc1)C2=O,-7.7,nt,nt,-6.1%,nt,
C/C(CC(C)C)=N\Nc1ccc(S(N)(=O)=O)cc1[N+](=O)[O-],0.7,nt,1.9,2.3%,9.4,
COc1cccc(/C=N/NC(N)=S)c1OS(=O)(=O)c1ccccc1,nt,-20.7,3.6,6.2%,4.0,
CC(C)N(C(=O)Cn1cc(SCC(=O)NCC2CCCO2)c2ccccc21)C(C)C (stereo unspecified),-1.4,nt,-0.4,3.3%,3.1,
COc1ccccc1OCCCCCCN1CCOCC1,-8.6,nt,-0.5,2.9%,-7.6,
Cc1cccc(NC(=S)NC(=O)C(c2ccccc2)c2ccccc2)n1,-4.1,-33.9,-0.9,4.7%,nt,
Cc1ccc(NC(=O)[C@H](Cc2ccccc2)NC(=O)C2CCNCC2)cc1,1.0,nt,-2.1,nt,nt,
O=C(NCc1ccccc1)C1=C[C@H](c2ccccc2)C[C@H](OCc2ccc(CO)cc2)O1,3.1,nt,8.6,1.7%,nt,
Brc1ccc(-c2csc(N/N=C/c3ccc4c(c3)OCO4)n2)cc1,-6.3,-27.6,-2.5,3.6%,8.8,

# Arranged by number of heavy atoms (largest number first): 3 of the compounds above
SMILES,Mtb betalactam,YopH inh,RecA splice inh,Mtb H37Rv,Arbovirus inh,others
O=C(NCc1ccccc1)C1=C[C@H](c2ccccc2)C[C@H](OCc2ccc(CO)cc2)O1,3.1,nt,8.6,1.7%,nt,
Brc1ccc(-c2csc(N/N=C/c3ccc4c(c3)OCO4)n2)cc1,-6.3,-27.6,-2.5,3.6%,8.8,
CS(=O)(=O)Oc1ccc2c(c1)O/C(=C\c1cccnc1)C2=O,-7.7,nt,nt,-6.1%,nt,

# Continuation:
SMILES,Mtb betalactam,YopH inh,RecA splice inh,Mtb H37Rv,Arbovirus inh,others
O=C(O)C1CCCCC1C(=O)Nc1ccccc1F (stereo unspecified),-4.9,22.2,1.6,-3.5%,-4.9,
CCOC(=O)c1cnc2ccc(C(=O)OC)cc2c1Nc1cccc(C(=O)O)c1,-0.7,nt,nt,0.3%,-1.5,
COc1ccc(CC(=O)Nc2nc(-c3ccc(F)c(F)c3)cs2)cc1OC,73.9,nt,4.8,nt,nt,
CN(C(=O)CN1C(=O)CCSc2ccc(S(=O)(=O)N3CCCC3)cc21)c1ccccc1,1.1,nt,-2.6,nt,nt,
Cc1cs/c(=N/C(=S)Nc2ccccc2)n1C,-2.6,-30.5,-0.8,-2.4%,-7.3,
CC(C)C(C(=O)NC1CCCC1)N(Cc1ccco1)C(=O)CNS(=O)(=O)c1ccccc1 (stereo unspecified),5.5,nt,-2.2,nt,nt,
O=C(c1ccc(S(=O)(=O)Nc2ccc(F)cc2)cc1)N1CCN(c2ccccn2)CC1,0.9,nt,nt,3.4%,8.3,
